Vaccinia mCherry: vaccinia inhibition (mCherry reporter) | Vaccinia virus mCherry reporter infection, fluorescence; about a quarter of the inactives have no number | Potency, µM (doses to about 36.5 µM), without a hit: at the top dose activity change, negative = inhibition, hits mostly inhibitors | 310,000 compounds, 0.63% hits | AID 720579; active = well fitted inhibition curve with a large enough effect; inconclusive = small, poorly fitted or top-dose-only effect; inactive = no such curve, though single readings can be large or run the other way; tested in A549 cells; also: nearly all actives have a fitted effect of over 35% in size; inactives centre near -10
Vaccinia Venus: inhibitors of vaccinia virus (Venus reporter); 330,000 compounds, 0.46% hits; AID 720580; Vaccinia virus Venus reporter expression, fluorescence; Potency, µM (series often up to 36.5 µM), inactives show at the top dose activity change, negative = inhibition, hits mostly inhibitors; active means well fitted inhibition curve with a large enough effect; inconclusive means small, poorly fitted or top-dose-only effect; inactive means no such curve, though single readings can be large or run the other way; tested in A549 cells; also: nearly all actives have a fitted effect of over 30% in size; inactives centre near -10
The depositor's hits bear a star; i = inactive; ? = inconclusive; · = no result given; & = joins results of further samples; [ ] = another dose, or the depositor's remark. % is scaled to controls: 0 for no effect and ±100 for the full control effect; potency is read from the fitted curve at half-maximal effect.

SMILES | Vaccinia mCherry | Vaccinia Venus
COc1ccc(OC)c2sc(N(Cc3cccnc3)C(=O)c3ccc(C(C)=O)cc3)nc12 | -23.7% | -12.4%
COc1ccc([C@H]2N[C@]3(CCCN(Cc4ccccc4)C3=O)[C@H]3C(=O)N(C)C(=O)[C@@H]23)cc1 | -4.6% | -14.6%
COc1ccc(CN=C2NC(=O)CC(C(=O)Nc3ccc(Cl)cc3)S2)cc1 (configuration not stated) | -3.4% | -19.8%
COc1ccc(S(=O)(=O)NCC2CCC(C(=O)NCCCN3CCCC3=O)CC2)cc1 (configuration not stated) | -9.6%[7.34 µM] | -5.6%[7.34 µM]
Nc1ccn(CC(=O)NCc2ccc3[nH]ccc3c2)c(=O)n1 | i | -3.0%
CS(=O)(=O)N1CCC(Oc2ccccc2C(=O)NC2CCOC2)CC1 (configuration not stated) | -21.1% | -1.5%
Cc1occc1C(=O)NNC(=O)c1ccccc1Br | i | -2.1%
CN(C)c1nc(N)nc(-c2ccco2)n1 | · | 3.6%
CC(=O)Nc1cccc(NC(=O)C2CC(=O)N(C3CCCCC3)C2)c1 (configuration not stated) | i | -6.3%
CCCCOC(=O)CSCC(=O)N1N=C(c2cccs2)CC1c1ccc(F)cc1 (configuration not stated) | i | -10.8%
CCn1c(C)nc2cc(C(=O)OC)ccc21 | -6.9% | -16.9%
ClCCOCOCCCl | i | -8.0%
CCC(CC)C(=O)Nc1c(C(=O)N2CCN(c3ccccc3)CC2)oc2ccccc12 | -24.0% | -17.3%
CCCn1nnc(NC(=O)c2ccc(OCC)c(Cl)c2)n1 | -16.3% | -7.9%
Cc1[nH]n(-c2ccccc2)c(=O)c1N=Nc1ccc2c(c1)OCO2 | -13.8% | -3.9%
CCOC(=O)c1ccc(NC(=O)Cn2cc(C(=O)c3cccs3)c3ccccc32)cc1 | -18.0% | -23.3%
COc1ccc(C(=O)Nc2ccc(C(=O)N3CCCCC3C)cc2)c(OC)c1OC (configuration not stated) | -13.3% | -11.6%
CC(C)(C)C(=O)Cn1ncc(NC2CC2)c(Br)c1=O | · | 7.1%
CC1C(=O)C(C)C(c2cc(Cl)ccc2O)NC1c1cc(Cl)ccc1O (configuration not stated) | -20.5% | ?
CCn1c(=O)n(-c2ccc3c(c2)OCO3)c2nc(-c3ccc(C(C)C)cc3)nc(C(N)=O)c21 | -17.9% | -14.6%
Cc1onc(-c2ccccc2Cl)c1C(=O)OCn1nnc2ccccc2c1=O | -1.5% | -13.8%
CCC(C(=O)NCc1cccnc1)c1ccccc1 (configuration not stated) | i | -1.4%
COc1ccc(/C=C2\COc3ccccc3C2=O)cc1OC | i | -1.9%
CC(C)(C)C(=O)OCc1nc(-c2ccc(C(F)(F)F)cc2)cs1 | -14.2% | -2.4%
CCc1nnc(NC(=O)C2CCCN2C(=O)NC2CCCCC2)s1 (configuration not stated) | -12.4% | -26.1%
COC(=O)c1cc(S(=O)(=O)NCCc2cccc(C)c2)cn1C | i | -24.2%
COc1ccc(OC)c(CCNC(=O)c2ccc3c(c2)c(C)c(C)n3Cc2ccccc2)c1 | -18.6% | -6.3%
COc1ccc(-c2noc(CSc3nnc(Cc4ccccc4)n3-c3ccc(F)cc3)n2)cc1 | -10.4% | 0.1%
Cc1ccc(COC(=O)CCN=C2NS(=O)(=O)c3ccccc32)cc1 | -13.8% | -6.5%
O=S(=O)(Nc1nc2ccccc2nc1NCCN1CCOCC1)c1cccc(Cl)c1 | -15.4% | -13.0%
Cc1cc2cc3c(=O)[nH]c(=O)nc-3n(CC(O)C(O)C(O)CO)c2cc1C (configuration not stated) | -16.0% | -9.2%
COc1ccccc1CN1CCC2(CC1)c1ccccc1[C@@H](NC(=O)c1ccco1)[C@@H]2OC | i | -28.9%
O=C(Nc1ccn(Cc2cccc3ccccc23)n1)c1cccnc1 | -11.1% | ?
CC(=O)Nc1ccc(S(=O)(=O)N2CCN(c3nnnn3-c3ccccc3)CC2)cc1 | i | -4.2%
COC(=O)c1c(C)oc2ccc(OC(=O)N3CCOCC3)cc12 | -13.2% | -7.3%
Cc1cccnc1-c1cccc2c1OC(CNC(=O)C1CCCc3c1[nH]c1ccccc31)C2 (configuration not stated) | -5.7% | -20.8%
Cc1cccc(S(=O)(=O)N(C)C[C@H]2OCc3cnnn3CCCC(=O)N([C@@H](C)CO)C[C@H]2C)c1 | -18.2% | -4.7%
Cc1cc(Cl)ccc1C(=O)C1CCCN(C(=O)c2cccc(N3CCCC3=O)c2)C1 (configuration not stated) | i[7.34 µM] | -7.8%[7.34 µM]
COC(=O)c1c(Oc2nc(OC)cc(OC)n2)cccc1Oc1nc(OC)cc(OC)n1 | -10.2% | -2.1%
COc1ccc(C2NC(=O)N(C)C3=C2C(=O)N(c2ccc(C)cc2)C3)cc1 (configuration not stated) | -3.7% | -5.6%

By substructure: the compounds so far with fluorine
SMILES | Vaccinia mCherry | Vaccinia Venus
CCCCOC(=O)CSCC(=O)N1N=C(c2cccs2)CC1c1ccc(F)cc1 (configuration not stated) | i | -10.8%
CC(C)(C)C(=O)OCc1nc(-c2ccc(C(F)(F)F)cc2)cs1 | -14.2% | -2.4%
COc1ccc(-c2noc(CSc3nnc(Cc4ccccc4)n3-c3ccc(F)cc3)n2)cc1 | -10.4% | 0.1%

(listing goes on)
SMILES | Vaccinia mCherry | Vaccinia Venus
CCn1c(NC(=O)Nc2cccc(C)c2C)cc2sccc21 | ? | -1.0%
COC(=O)C(Cc1ccc(O)cc1)NC(=O)CCC(=O)Nc1ccc(S(N)(=O)=O)cc1 (configuration not stated) | -7.1% | -3.2%
CC(=O)N1c2ccc(S(=O)(=O)N3CCCC3C(=O)Nc3ccc(C)cc3)cc2CC1C (configuration not stated) | -20.6% | -10.7%
Cc1ccc(CN2CCN(Cc3ccon3)CC2CCO)cc1 (configuration not stated) | -0.7% | 10.4%
COc1ccc(CNC(=O)c2ccc3c(c2)CCN3S(=O)(=O)c2ccc(C)cc2)cc1 | -27.0% | -14.7%
O=C(O)c1cc(=O)c2c(Cl)cc(Cl)cc2[nH]1 | -12.1%&-1.2% | -14.8%&-11.2%&0.0%
CC(=O)Nc1ccc(NC(=O)CCn2cnnn2)cc1 | -8.2% | 3.3%
Cc1ccc(C(=O)c2cn(CC(=O)NC3CCCCC3)c3nc(C)ccc3c2=O)cc1 | -8.4% | -7.8%
COc1ccc2c(C#CCCO)c(-c3ccc(S(C)(=O)=O)cc3)sc2c1 | ? | ?
Cc1c(NC(=O)C(C)N2C(=O)c3ccccc3C2=O)c(=O)n(-c2ccccc2)n1C (configuration not stated) | -5.0% | -14.5%
Cc1cc(C)nc(NC(=S)Nc2ccc(Br)cc2Cl)c1 | -2.9% | -4.2%
CCOc1ccc(NC(=O)CN(C)C(=O)c2c(C)noc2C)cc1OCC | i | -13.8%
CC(=O)c1sc(C(C)(C)C)cc1NC(=O)CCC(=O)O | -4.5% | -12.8%
COc1ccc(C(=O)N/N=C\c2coc3ccc(C)cc3c2=O)cc1 | ? | -23.7%
COC(=O)c1[nH]c2cc(OC)ccc2c1NC(=O)CN1CCC(C(N)=O)CC1 | i | -12.3%
CC1CN(C(=O)N2CCOCC2)CCN1C(=O)N1CCOCC1 (configuration not stated) | -21.5% | -7.7%
CCOC(=O)c1c(Cc2ccccc2)c[nH]c1C | -8.3% | -13.9%
O=C(CC(=O)NN=Cc1ccc2c(c1)CCC2)NN=Cc1ccc2c(c1)CCC2 | i | 0.3%
CC(C)CNC(=O)COC(=O)c1c2c(nc3ccccc13)CCC2 | -4.2% | -8.4%
CCOc1ccccc1OCCOCCN1CC(C)OC(C)C1 (configuration not stated) | -16.1% | -1.4%
Cc1cnc(C=NNC(N)=S)c2cccc(N)c12 | ? | -28.6%
Cn1c(/C=N/c2nc3ccccc3[nH]2)nc2ccccc21 | -11.3% | -9.6%
CC(C)(C)OC(=O)N(CCc1ccccc1)Cc1ccc(OCc2cccc(NC(=O)/C=C/c3ccccc3)c2)cc1 | -6.9% | -9.4%
CC(C)(C)c1ccc(-c2nnc(SC3CCOC3=O)n2Cc2ccccc2)cc1 (configuration not stated) | i | -16.3%
COc1ccc(Cl)cc1NC(=O)CSC1=Nc2ccccc2C2=NC(CC(=O)NC3CCCCC3)C(=O)N12 (configuration not stated) | 1.0% | -4.1%
COc1cc(/C=N/NC(=O)c2nnn(-c3nonc3N)c2C)ccc1OCc1ccc(Cl)cc1 | -4.9% | ?
COc1cccc(NS(=O)(=O)c2ccc3c(c2)CCN3C(C)=O)c1 | ? | -24.9%
COc1ccccc1N1C(=O)NC(=O)C(CCc2ccncc2)(CCc2ccncc2)C1=O | i | -5.2%
CCc1ccc(CCC(=O)Nc2sc(C)c(C)c2C(=O)OC)o1 | -15.2% | 1.8%
Cc1ccc(C(=O)NCCn2c(N)c(C#N)c3nc4ccccc4nc32)cc1 | -23.3% | -9.8%
COc1ccccc1NC(=O)c1nn(-c2ccc(F)c(F)c2)ccc1=O | · | -20.7%
O=C1NC[C@@H](CCCCN2CCN(CCc3ccc(O)cc3)C(=O)C2=O)N(CCC2CCCCC2)C1=O | 45.5%[activator] | -1.3%
CCN(CC)S(=O)(=O)c1ccc(Cl)c(NC(=O)c2cc(Cl)cc(Cl)c2)c1 | -16.2% | -2.8%
CCC(CC)C(=O)c1c[nH]c(C(=O)NCCCN2CCOCC2)c1 | -10.4% | -5.1%
O=C1c2oc3ccc(F)cc3c(=O)c2C(c2cccc([N+](=O)[O-])c2)N1CCCN1CCOCC1 (configuration not stated) | -18.9% | -17.9%
O=C(c1ccc(N2C(=O)c3ccccc3C2=O)cc1)N1CCN(S(=O)(=O)c2ccccc2F)CC1 | i | -15.8%
CCOc1ccc(NCCC#N)cc1 | 0.3% | -0.6%
CN(C)c1ccc(/C=N/NC(=O)CCCO)cc1 | -14.4% | 0.6%
COC(=O)c1sccc1NC(=O)Nc1ccc(Cl)c(Cl)c1 | · | -19.8%
C=CCNC(=O)c1onc(CSc2cccc(Cl)c2)c1C(=O)O | i | -8.8%
CCOC(=O)c1c(NC(=O)c2cc(-c3ccc(OC)c(OC)c3)on2)sc(C)c1C | -7.7% | -1.0%
CCc1ccc(NC(=O)CN(c2ccc(OC)cc2)S(=O)(=O)c2c(C)[nH]c(=O)[nH]c2=O)cc1 | -17.4% | -5.3%
CCOc1ccccc1NC(=O)NNC(=O)COc1cccc(C)c1C | i | -10.9%
CC(C)(C)C(=O)/C(C#N)=C/c1ccc(O)cc1 | i | 3.1%
CCOc1ccc2[nH]c3c(=O)n(CCc4ccc(OC)cc4)cnc3c2c1 | 71.4%[activator] | 2.2%
CCCn1c(N)c(C(=O)CN(C)CC(=O)Nc2c(C)cc(C)cc2C)c(=O)[nH]c1=O | i | -20.5%
O=C1C=C(NCC2CCCO2)CC(c2ccccc2)C1 (configuration not stated) | -2.4% | -5.5%
CCC(Sc1ccc2nnc(-c3cccnc3)n2n1)C(=O)OC (configuration not stated) | 29.9% | -5.4%&-13.5%
CCCN(C(=O)CSc1nc2c(cnn2-c2ccccc2)c(=O)[nH]1)C1CCS(=O)(=O)C1 (configuration not stated) | -8.5% | -0.5%
COc1ccccc1CNC(=O)C1CCN(S(=O)(=O)c2ccc3c(c2)OCCO3)CC1 | -1.4% | -6.7%
COc1cc(OC)cc(C(=O)N2CCC(C(=O)Nc3ccc4c(c3)OCCO4)CC2)c1 | -20.0% | -20.9%
Oc1ccc(/C=N/n2c(-c3ccccc3)n[nH]c2=S)cc1 | -3.5% | 3.6%
CC(=O)Nc1cc(NC(C)=O)cc(C(=O)OCC(=O)N2CC(C)OC(C)C2)c1 (configuration not stated) | · | 5.2%
CCOC(=O)CNC(=O)CSc1ncnc2c1cnn2-c1ccccc1 | i | -7.1%
Oc1[nH]c2ccccc2c1C=Nc1ccc2c(c1)OCCO2 | ? | -13.5%
O=C(CCCN=C1NS(=O)(=O)c2ccccc21)OCC(=O)c1ccc(F)cc1 | -14.7% | -10.9%
COc1ccc(/C=C/c2n[nH]c(=O)c(C#N)c2C)cc1 | -13.6% | -2.6%
Cc1nc(-c2ccc(F)cc2)c(CC(=O)N2CCN(S(=O)(=O)c3cccc([N+](=O)[O-])c3)CC2)s1 | -25.0% | -16.4%
CC1CCCCC1NS(=O)(=O)c1ccc(S(=O)(=O)N2CCN(CCC#N)CC2)cc1 (configuration not stated) | -8.2% | -8.9%
C=CCNC(=S)NNC(=O)C(CCCC)CC(C)O (configuration not stated) | · | -22.4%

A draw from above in order of SMILES length, largest number first:
SMILES | Vaccinia mCherry | Vaccinia Venus
CCc1ccc(NC(=O)CN(c2ccc(OC)cc2)S(=O)(=O)c2c(C)[nH]c(=O)[nH]c2=O)cc1 | -17.4% | -5.3%
COc1cc(OC)cc(C(=O)N2CCC(C(=O)Nc3ccc4c(c3)OCCO4)CC2)c1 | -20.0% | -20.9%
COc1ccc(/C=C/c2n[nH]c(=O)c(C#N)c2C)cc1 | -13.6% | -2.6%

(cont.)
SMILES | Vaccinia mCherry | Vaccinia Venus
COc1ccc(C(=O)CSc2nnc(CNC(=O)c3ccc(OC)c(OC)c3)n2C)cc1 | · | -4.1%
O=C(NCCCN1CCCC1=O)NC12CC3CC(CC(C3)C1)C2 | -2.9% | -22.1%
Cc1cccc(-n2nnc(C(=O)Nc3ccc(F)cc3)c2N)c1 | i | -17.4%
COCCn1c(N)c(N(Cc2ccccc2)C(=O)CSCC(=O)Nc2ccc(OC)cc2)c(=O)[nH]c1=O | -9.0% | -3.8%
Cc1cc(F)c(F)c(C(=O)N2CCCCC2C)c1Cl (configuration not stated) | -11.3% | -2.1%
CCn1cc(Cl)c(C(=O)NNC(=O)CCn2nc(C)c([N+](=O)[O-])c2C)n1 | i | 3.2%
CCOc1ccccc1C(=O)NN1C(=O)C2CCCCC2C1=O (configuration not stated) | -7.1% | -3.9%

Rows were taken by chance; any-hit rate near 0.86%.
